Bioassay records (PubChem BioAssay)
Ba CapD inh: Bacillus anthracis CapD inhibitors, primary screen, biochemical, fluorescence intensity; CapD gamma-glutamyltranspeptidase (Bacillus anthracis Ames Ancestor); purified CapD enzyme, fluorescence intensity read-out; active compounds read low; some hits fall short of the stated cut; z-score (concentration not given with the values); actives 0.23% (n = 140,000);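 active = z-score under -4 in either of two replicates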;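 note: stock transfer was 100 nL into about 40 µL; score is relative to mean and spread of the plate; one replicate is shown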
AID504770: growth inhibition of E. coli YBA685, primary screen, V. cholerae RctB inhibitors. E. coli YBA685 rctB-dependent plasmid, OD600 growth, 3 h; active compounds read low. z-score (concentration not given with the values). actives 0.27% (n = 130,000). AID 504770, 2011;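 active = z-score under -2 on both plates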;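 note: wells of about 30 µL received 100 nL stock; score is relative to mean and SD of the test wells; the first replicate is given; strong numbers were not always called active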
An asterisk follows results filed as active; / = no result given.

Results follow in this order: Ba CapD inh	AID504770
1	NC(=O)C(c1ccc(Cl)cc1)c1ccc(C(=O)c2ccccc2)cc1 (stereo not given)
    -0.895	/
2	COCCOC(=O)C1=C(C)NC2=C(C(=O)CC(c3cccs3)C2)C1c1ccc(OC)c(OC)c1OC (stereo not given)
    5.39	/
3	O=C1/C(=C/c2c(NCc3ccco3)nc3ccccn3c2=O)SC(=S)N1Cc1ccco1
    -0.005	/
4	COc1ccc(/C=C2\SC(=O)N(CCC(=O)Nc3ccc(S(=O)(=O)Nc4nccs4)cc3)C2=O)cc1
    -0.455	/
5	O=C(O)c1ccc(/C=C2\COc3ccccc3C2=O)cc1
    /	0
6	CN(C)c1ccc2c3c(ccc(N(C)C)c13)COC2
    0.375	-0.4
7	Cc1ccc(S(=O)(=O)N2CC=C(C(=O)NC3CCCCCC3)CC2)cc1
    -0.23	-0.35
8	CC1(C)CC(=O)C2=C(C1)OC1=C(C(=O)CC(C)(C)C1)C2c1ccc(-c2ccc(Cl)cc2)o1
    2.56	/
9	COc1ccccc1OCCSc1nc2ccccc2n1CC(=O)O
    0.385	/
10	CCSc1nnc(SCC(=O)c2c[nH]c3ccccc23)s1
    /	1.25
11	CCOC(=O)c1c(C)n(-c2ccccc2)c2ccc3c(c12)CN(Cc1ccccc1)CO3
    -0.05	-0.7
12	COc1ccc(C2CC(=O)C3=C(C2)Nc2ccccc2NC3c2cc(OC)c(OC)c(OC)c2)cc1OC (stereo not given)
    -1.22	/
13	CSc1c(-c2ccccn2)c(N)nn1C(=O)C1CCC1
    0.19	-0.65
14	Cc1nc(-c2ccccc2)sc1C(=O)N1CCC(C(N)=O)CC1
    -0.555	-0.2
15	C=CCNC(=O)C1CCC(C(=O)NCC=C)CC1 (stereo not given)
    0.49	0.4
16	CCOC(=O)N/N=C/c1ccc(O)cc1
    -0.015	/
17	Cc1cc(C)c(N2CC(=O)NCC2=O)c(C)c1
    -0.135	1.3
18	CCC(CC)NC(=O)Cc1cccs1
    0.185	-0.05
19	O=C(O)C1CC(O)CN1S(=O)(=O)c1ccc(Br)cc1 (stereo not given)
    /	-0.5
20	CC(=S)Nc1ccc(C(F)(F)F)cc1
    /	0.6
21	CCN1/C(=C/c2ccc3cc(C)ccc3[n+]2C)Sc2cc(OC)ccc21
    5.61	0
22	COC(=O)Nc1ccc(SCC(=O)Nc2ccc(C)cc2)cc1
    0.055	0.3
23	CCCCN1Cc2c(n(CC(N)=O)c3cc(-c4ccccc4)nn3c2=O)C1=O
    27.9	-1
24	CCCOCCOC(=O)NNC(=O)CC1Sc2ccccc2NC1=O (stereo not given)
    -1	/
25	Cc1cc(C(=O)OCC(=O)NC2CCCCC2)c(C)o1
    -0.07	0.05
26	O=c1cc(CN2CCCCC2)nc2sccn12
    /	0.15
27	CCOC(=O)c1cnc2c(C)cc(C)cc2c1NCCN(C)C
    1.34	0.1
28	O=C(Nc1ccc(O)c(C(=O)O)c1)c1ccc(Br)cc1
    -0.16	0.7
29	COCc1cc(C)nc(N)c1C#N
    1.31	-0.5
30	CCCN1C(=O)/C(=C/c2ccc(CC)cc2)NC1=S
    -0.66	-0.85

Profiles from above. Values in the order: Ba CapD inh	AID504770
Results for CCC(CC)NC(=O)Cc1cccs1 = 0.185	-0.05
Results for Cc1cc(C(=O)OCC(=O)NC2CCCCC2)c(C)o1 = -0.07	0.05
Results for CCCN1C(=O)/C(=C/c2ccc(CC)cc2)NC1=S = -0.66	-0.85
Results for O=C(Nc1ccc(O)c(C(=O)O)c1)c1ccc(Br)cc1 = -0.16	0.7
Results for CCCCN1Cc2c(n(CC(N)=O)c3cc(-c4ccccc4)nn3c2=O)C1=O = 27.9	-1

The list continues.
Results follow in this order: Ba CapD inh	AID504770
31	COc1ccccc1C(=O)Nc1cccc(Cl)c1
    -0.365	-0.85
32	O=C1NC(=O)/C(=C\c2ccccc2)S1
    -0.49	0.3
33	COc1cccc(OCC(=O)NC(C(=O)O)C(C)C)c1 (stereo not given)
    /	0.05
34	CC(=O)OCC[N+](C)(C)C
    0.5	0
35	CN(Cc1ccc(C(F)(F)F)cc1)C(=O)C1CC(=O)N(Cc2ccco2)C1 (stereo not given)
    /	-0.05
36	Cc1ccc(C)c(C(=O)COC(=O)c2c(-c3ccccc3)noc2C)c1
    /	-0.25
37	COc1cccc2c(=O)n(CC(=O)NC3CCCC3)ccc12
    14.1	2
38	CC1CCN(CCCNC(=O)Cn2ncc3c(=O)oc4ccccc4c32)CC1
    -0.35	0.55
39	N#Cc1c(N)n[nH]c1CCCCCN
    /	0.2
40	COc1cc(C2C(C(=O)c3ccco3)=C(O)C(=O)N2CCc2ccccc2)ccc1O (stereo not given)
    /	0.05
41	CCc1ccc2nc(C(C#N)C3=NS(=O)(=O)c4ccccc43)[nH]c(=O)c2c1 (stereo not given)
    /	1.3
42	COC(=O)CC1C(=O)NCCN1C(=O)CSc1nnnn1-c1ccc(Cl)cc1 (stereo not given)
    /	0.05
43	Cc1nn2c3ccccc3n(CC(=O)c3ccccc3)c2nc1=O
    2.52	/
44	O=C(Nc1nccs1)C1CCCN(C(=O)c2cnn(-c3ccccc3)c2-n2cccc2)C1 (stereo not given)
    -0.865	-1.7
45	O=C1CCCN2N=C(SC/C=C/c3ccccc3)SC2=N1
    -0.455	-0.75
46	O=C1c2ccccc2C(=O)N1CC1c2ccccc2CCN1S(=O)(=O)c1cccc2nsnc12 (stereo not given)
    -0.52	/
47	COc1ccc(S(=O)(=O)Nc2cccc(-c3ccc(N4CCOCC4)nn3)c2)c(OC)c1
    0.52	0.25
48	COC(=O)c1ccc(OC(=O)c2ccc3c(c2)OCCO3)cc1
    /	-0.45
49	NC1=NC(=O)C(CC(=O)OCC(=O)Nc2cc(Cl)cc(Cl)c2)S1 (stereo not given)
    /	-0.1
50	CCn1c(CN2CCCCCC2=O)nnc1SCc1cnc(-c2ccccc2)s1
    /	-0.75
51	C=CCNC(=O)CN1CCN(S(=O)(=O)c2ccc(C(C)CC)cc2)CC1 (stereo not given)
    /	-0.8
52	CCN1CCN(S(=O)(=O)c2ccc(Cl)c(C(=O)NCc3nc4ccccc4[nH]3)c2)CC1
    /	1.9
53	O=C(c1cc2c(ccc3ccccc32)oc1=O)N1CCN(CCO)CC1
    76.5	-0.45
54	COC(=O)c1cnc(SC(c2ccccc2)c2nc(OC)cc(OC)n2)n1C (stereo not given)
    -0.31	/
55	O=C(NCc1noc2ccccc12)Nc1cccc(C(F)(F)F)c1
    2.56	-0.25
56	CC(C)n1cc(-c2ccncc2)cn1
    0.12	/
57	CC(C)c1ccc(C2C(C#N)=C(SCC(N)=O)NC3=C2C(=O)CCC3)cc1 (stereo not given)
    16.9	-0.05
58	Cc1ccc(NC(=O)Nc2ccccn2)cc1
    0.155	-0.5
59	Cc1ccc(CNC(=O)c2ccc(N3CC4CC(C3)c3cccc(=O)n3C4)c(NS(=O)(=O)c3ccc(F)c(C)c3)c2)cc1 (stereo not given)
    0.18	/
60	COc1ccc(N=Cc2c(O)cc(C)oc2=O)c(OC)c1
    -0.14	-0.4

Entries above that contain bromine:
Results follow in this order: Ba CapD inh	AID504770
19	O=C(O)C1CC(O)CN1S(=O)(=O)c1ccc(Br)cc1 (stereo not given)
    /	-0.5
28	O=C(Nc1ccc(O)c(C(=O)O)c1)c1ccc(Br)cc1
    -0.16	0.7

(continued)
Results follow in this order: Ba CapD inh	AID504770
61	Cc1cc2c(cc1S(=O)(=O)NCCCc1ccccc1)OCC(=O)N2
    -1.99	1.55
62	COc1ccc(C(C#Cc2ccccc2)N2CCOCC2)cc1 (stereo not given)
    -0.495	0.8
63	Cc1cccc(N(CC(=O)NCc2ccco2)S(=O)(=O)c2ccccc2)c1C
    1.04	0.15
64	O=C(Cc1ccccc1)Nc1ccc(N2CCN(c3ccccc3)CC2)c(F)c1
    0.085	/
65	Cc1ccc(/C=C/C(=O)OCc2nc(N)nc(Nc3ccccc3C)n2)o1
    /	-0.15
66	O=C(/C=N/O)Nc1ccc2c(c1)OCCO2
    /	0.35
67	CCOC(=O)c1cc(C)nn1Cc1ccc(C)cc1
    0.18	-0.6
68	COc1cc(OC)nc(CN2CCN(C(=O)NS(=O)(=O)c3ccc(C)cc3)CC2)n1
    -0.48	/
69	Cc1ccc(-n2c(=O)c3cccnc3n2CC(=O)NCCCc2ccccc2)cc1C
    22.6	0.2
70	CCOC(=O)c1sc2nc(CC(=O)OC)nc(Nc3ccccc3OCC)c2c1C
    0.035	/
71	O=C(NCc1cccnc1)C(F)(F)C(F)(F)C(F)(F)F
    0.055	1
72	CC(C)(CC(=O)Nc1ccc(F)cc1)Sc1ccc(Cl)cc1
    0.09	-0.45
73	COc1ccc(-n2c(-c3cccc(OC)c3)cn3c4c(=O)n(C)c(=O)n(C)c4nc23)cc1
    -0.12	/
74	O=C(Nc1cccc(NC(=O)C2CCCO2)c1)c1ccco1 (stereo not given)
    /	1.45
75	O=C(Nc1ccccc1C(F)(F)F)c1ccncc1
    /	0.25
76	Cc1ccc(S(=O)(=O)N(C)c2nc3ccccc3n3c(-c4ccc(Br)o4)nnc23)cc1
    /	0.35
77	Cc1cccc(Nc2ncnc3c2cnn3-c2cccc(C)c2)c1
    -0.31	/
78	FC(F)(F)c1cnc(C/C=N\OCc2c(Cl)cccc2Cl)c(Cl)c1
    -0.085	/
79	CN1CCN(CCCSc2nnc3c(n2)[nH]c2ccccc23)CC1
    -0.73	/
80	O=C1CC(c2ccccc2)CC2=C1C(c1cccs1)N(C(=O)C(F)(F)F)c1ccccc1N2 (stereo not given)
    -0.575	/
81	CCCCn1c(=O)n(C)c(=O)c2ccc(-c3ccc(Cl)cc3)nc21
    /	1
82	Cc1cc(C)n(-c2ncc(C#N)c(N)n2)n1
    0.2	/
83	c1cnc2cc(Oc3ccc4nccnc4c3)ccc2n1
    0.53	-0.5
84	COc1ccc(-c2cc(-c3cccc(Br)c3)c(C#N)c(N)n2)cc1
    22.8	/
85	CCCC1COC(c2ccc(C#N)cc2)OC1 (stereo not given)
    0.325	0.3
86	CC1(C)CC(=O)C2=C(C1)OC1CCCCC21 (stereo not given)
    -0.18	/
87	O=C(Nc1ccccc1)C(=S)NCc1ccco1
    -0.045	0.8
88	O=C(Cn1cnc2onc(-c3ccc(Cl)cc3)c2c1=O)NCCCN1CCCC1
    -0.185	-0.45
89	Cc1ccc2c(CNCC(C)(C)CN(C)C)cc(=O)oc2c1
    /	0.6
90	Cc1ccc(NC(=O)CSc2nc3ccccc3nc2Cc2cccc([N+](=O)[O-])c2)cc1F
    0.215	/
91	CCC(CC)c1nnc(NC(=O)CCc2c(C)noc2C)s1
    /	1.95
92	O=C(/C=C/c1cn(-c2ccccc2)nc1-c1ccc(F)cc1)NCc1ccco1
    /	1.3
93	Cc1c(OCc2nnc(SCC(=O)Nc3nnc(C4CC4)s3)n2C)ccc2ccccc12
    /	0.15
94	Cc1ccc(/C=C/C(=O)O)cc1
    1.09	0.75
95	CCN(CC)C(=S)SC(=O)c1ccccc1Cl
    -0.025	-0.8
96	COc1ccccc1/C=C\C=c1/sc2nc(-c3ccco3)nn2c1=O
    /	0.3
97	CCOC(=O)C1C(=O)NC2(C)CC1c1ccccc1O2 (stereo not given)
    0.64	/
98	Cc1ccnc(NC(=O)CCc2nnc3ccc(NCc4ccc(F)cc4)nn23)c1
    0.515	-0.65
99	CCN1C(=O)C(=Cc2cccn2C)C(=O)N(CC)C1=S
    -0.24	1.45
100	Cc1ccccc1Nc1nnc(SCC(=O)Nc2cc(C(C)C)no2)s1
    /	-0.65
101	Oc1ccc(C(c2ccc(O)cc2)(C(F)(F)F)C(F)(F)F)cc1
    -0.115	-0.5
102	CCN(CC)C(=O)/C=C/c1cccs1
    -1.53	0.95
103	CCOC(=O)C1CCN(C(=O)COC(=O)c2ccc(C)cc2)CC1
    /	-0.7
104	O=C(O)c1ccc(Sc2ccccn2)o1
    0.375	-0.45
105	CC1=CC(C)(C)NC(=O)N1c1ccccc1
    -0.05	-0.1
106	O=c1c2ccccc2c(-c2ccccc2)nn1-c1ccccc1
    1.15	0.05
107	Cc1ccc(CNC(=O)CSC2=Nc3ccccc3C3=NC(Cc4ccccc4)C(=O)N23)cc1 (stereo not given)
    8.21	1.4
108	O=C(O)CCCC(=O)Nc1ccc(Oc2cccc(C(F)(F)F)c2)nc1
    0.64	1.1
109	Fc1ccc(Nc2nc3ccccc3o2)c(F)c1
    0.09	0.9
110	CC1(c2ccc3c(c2)OCO3)NC(=O)N(CC(=O)c2ccc3c(c2)CCC3)C1=O (stereo not given)
    /	-0.2
111	O=C(O)C12CC3CC(CC(Br)(C3)C1)C2
    0.395	/
112	CCOc1ccc2c(c1)C(=C1SC(C(=O)OC)=C(C(=O)OC)S1)C(=S)C(C)(C)N2C(=O)CC
    -0.69	/
113	CC(C)(C)C(=O)c1sc2sc(C(=O)C(C)(C)C)c(N)c2c1N
    0.14	/
114	COC(=O)C(C)Nc1ccc(C)cc1 (stereo not given)
    1.38	-0.8
115	CC1(C)OCC(C2OC(=O)C3OC(C)(C)OC32)O1 (stereo not given)
    0.04	-0.6
116	CC(C)NC(=O)COc1ccc2c(c1)C(=O)CC(C)(C)O2
    0.305	0
117	CCCOc1ccc(C2C(C#N)=C(N)Oc3n[nH]c(-c4ccc5c(c4)OCO5)c32)cc1 (stereo not given)
    0.14	/
118	O=C1/C(=C/c2ccc(N3CCOCC3)cc2)COc2ccccc21
    /	-0.75
119	CCn1c(=O)c(CNc2ccc(N3CCC(O)CC3)cc2)cc2cc(OC)ccc21
    0.06	-0.5
120	O=C1CC(c2ccccc2)Sc2nc(-c3ccccc3)nn21 (stereo not given)
    0.36	-0.4
121	CCn1c(=N)n(CCCOc2ccc(Br)cc2)c2ccccc21
    -2.59	-0.05
122	O=C(NC1CCN(c2nc(-c3ccccc3)cs2)CC1)c1cccs1
    /	1.25
123	CCC(=O)Nc1nnc(CCCn2c(-c3nonc3NC(=O)CC)nc3ccccc32)s1
    1.06	/
